Screens (PubChem)
Vaccinia Venus: vaccinia inhibition (Venus reporter). Vaccinia virus Venus reporter expression, fluorescence. Potency, µM (highest dose often 36.5 µM), for inactives: at the top dose activity change, negative = inhibition, actives largely listed as inhibitors. 330,000 tested, 0.46% active. AID 720580; active means well fitted inhibition curve with a large enough effect; inconclusive means small, poorly fitted or top-dose-only effect; inactive means no such curve, though single readings can be large or run the other way; tested in A549 cells; also: nearly all actives have a fitted effect of over 30% in size; inactives centre near -10
VACV mCherry inh: inhibitors of vaccinia virus infection (mCherry reporter signal); Potency, µM (top dose mostly 36.5 µM), inactives show top-dose activity change, negative = inhibition, most hits filed as inhibitors; Vaccinia virus mCherry reporter infection, fluorescence; about a quarter of the inactives have no number; 310,000 tested, 0.63% active; active = well fitted inhibition curve with a large enough effect; inconclusive = small, poorly fitted or top-dose-only effect; inactive = no such curve, though single readings can be large or run the other way; tested in A549 cells; also: nearly all actives have a fitted effect of over 35% in size; inactives centre near -10
An asterisk follows results filed as active; i = inactive; ? = inconclusive; nt = no result given; & = joins results of further samples. % is scaled to controls: 0 for no effect and ±100 for the full control effect; potency is read from the fitted curve at half-maximal effect.

SMILES | Vaccinia Venus | VACV mCherry inh
COCCN1C2=C(COC(C)(C)C2)C(=S)NC1c1ccccc1 (stereo not given) | -1% | -15%
O=S(=O)(N[C@H]1C[C@@H](NS(=O)(=O)OCC(Cl)(Cl)Cl)C2CCCCC21)OCC(Cl)(Cl)Cl (stereo not given in full) | 10µM* | ?
O=C(/C=C/c1ccccc1)NCCSCc1ccccc1 | -9% | -8%
COc1ccc(NC(=S)NCC2CCCO2)c(C)c1 (stereo not given) | 0% | -9%
CCOC(=O)[C@@H]1CSCCS(=O)(=O)N1Cc1ccccc1Br | -11% | i
Cn1c(/C=N/n2cnnc2)nc2ccccc21 | -13% | -10%
O=C1C(=O)N(CCN2CCOCC2)C(c2ccncc2)/C1=C(/O)c1ccc2c(c1)OCO2 (stereo not given) | -18% | -17%
COc1cc(C(=O)NCc2ccncc2)cc(Br)c1OCc1ccccc1 | -19% | -18%
CCCN1CCN(c2ccc([N+](=O)[O-])cc2C#N)CC1 | 3% | -8%
Cc1ccccc1OCCOC(=O)c1c(-c2ccccc2)noc1C | -25% | -12%
CN(CC(=O)Nc1cccc(F)c1)C(=O)c1ccc2c(c1)OCCO2 | -4% | -14%
O=C(O)c1cccc(Oc2ccc(C(=O)O)c([N+](=O)[O-])c2)c1 | 1% | i
COc1ccc(NC(=O)c2cc(-c3ccccc3)oc2C)cc1 | -6% | -13%
COC(=O)C1=C(c2ccccc2)C[C@@H]2CC[C@H]1N2C | -9% | i
O=C1NC(=O)C(Cc2ccccc2)(c2ccccc2)N1 (stereo not given) | -3% | -3%
O=[N+]([O-])c1cccc(S(=O)(=O)Nc2ccccn2)c1 | -8% | -21%
CCS(=O)(=O)c1cc([N+](=O)[O-])c(Sc2ccccc2N)s1 | -1% | -20%
CSCCC(c1nnnn1C1CCCCC1)N1CCC(n2c(=O)[nH]c3ccccc32)CC1 (stereo not given) | -7% | -5%
c1ccc2c(-c3nn4nnnc4c4ccccc34)cccc2c1 | -2% | -10%
O=C(COc1ccc(Cl)cc1)N(c1ccc(Cl)cc1)C1CN2CCC1CC2 (stereo not given) | -27% | -11%
CCc1nc2c(OCc3ccccc3C(=O)OC)cccn2c1N(C)C(=O)c1ccncc1 | -3% | i
COc1ccc2c(c1OC)CN1CCc3cc4c(cc3[C@H]1C2)OCO4 | -4% | ?
COc1ccc(C(C)(O)c2nc(-c3cccc(C#N)c3)cs2)cc1 (stereo not given) | -19% | 2%
O=C(Nc1ccc2ccccc2c1)C(c1ccccc1F)n1c(=O)c(-c2cc3ccccc3[nH]2)nc2ccccc21 (stereo not given) | -1% | ?
COc1ccccc1/C=C/C(=O)NC(=S)N1CCN(C)CC1 | -8% | i
COCc1cc(C)nc(OCC(=O)N/N=C/c2ccc(-c3cc([N+](=O)[O-])ccc3C)o2)c1C#N | -10% | -14%
O=C1OCCC1Sc1nnc(-c2ccc(Br)cc2)o1 (stereo not given) | -16% | nt
CC(C)Oc1cccc(C(=O)Nc2ccc(NC(=O)c3ccco3)cc2)c1 | ? | nt
Cc1csc2nc(COC(=O)CNC(=O)c3ccccc3)cc(=O)n12 | 2% | -10%
CC(C)(C)OC(=O)N1CCC(c2c(C(=O)N3CCN(c4ccccn4)CC3)cnn2-c2ccc(F)cc2F)CC1 | -12% | -11%
CCc1ccc(CNC(=O)C2CCN(S(=O)(=O)N3CCCCC3)CC2)cc1 | -25% | 0%
COC(=O)c1ccc2c(=O)n(-c3ccccc3)c(=S)[nH]c2c1 | -3% | -27%
COc1ccc(-c2ccc(CN3C(C(C)C)C(=O)N(Cc4cn(CCC5OCCCO5)nn4)CCS3(=O)=O)cc2)cc1OC (stereo not given) | -13% | i
O=C(CSc1nnc(NC(=O)C2CC(=O)N(c3ccc(F)cc3)C2)s1)NC1CCCC1 (stereo not given) | -4% | -8%
CCC(C)n1c(=N)c(C#N)cc2c(=O)n3ccccc3nc21 (stereo not given) | -3% | nt
CC(C)C(=O)N1CCC(c2nc(-c3ccc(S(=O)(=O)N4CCCC4)cc3)no2)CC1 | -8% | -16%

A second format for 4 compounds above:
smiles: CC(C)Oc1cccc(C(=O)Nc2ccc(NC(=O)c3ccco3)cc2)c1
  Vaccinia Venus = ?
  VACV mCherry inh = nt

smiles: Cc1csc2nc(COC(=O)CNC(=O)c3ccccc3)cc(=O)n12
  Vaccinia Venus = 2%
  VACV mCherry inh = -10%

smiles: CC(C)(C)OC(=O)N1CCC(c2c(C(=O)N3CCN(c4ccccn4)CC3)cnn2-c2ccc(F)cc2F)CC1
  Vaccinia Venus = -12%
  VACV mCherry inh = -11%

smiles: CCc1ccc(CNC(=O)C2CCN(S(=O)(=O)N3CCCCC3)CC2)cc1
  Vaccinia Venus = -25%
  VACV mCherry inh = 0%

(more compounds)
SMILES | Vaccinia Venus | VACV mCherry inh
O=C(NCCc1ccccc1)C1CCCN1S(=O)(=O)c1ccccc1 (stereo not given) | -8% | i
O=C(COC(=O)c1cccc(OC(F)F)c1)Nc1cc(S(=O)(=O)N2CCCC2)ccc1Cl | -10% | i
COC(=O)C1=CN(c2ccc(C(C)(C)C)cc2)C(N)=C(C#N)C1c1cccc2ccccc12 (stereo not given) | -12% | 8.9µM*
CCCCC[C@@H](C)N1C[C@@H](COCc2ccccc2)Oc2cc(N3CCC[C@H]3C(N)=O)ccc2S1(=O)=O | -2% | -9%
CCc1ccc(CNc2ccc3c(c2)ncn3CC)cc1 | -15% | -11%
S=C(NCCc1cccc(Cl)c1)NC1CCCCC1 | -23% | -6%
CCOC(=O)N1CCN(c2nc3c(C)cccn3c(=O)c2C=O)CC1 | -2% | 2%
Cc1sc2ncnc(SCC(=O)NC(=O)c3cccn3C)c2c1C | ? | -20%
Cc1cn([C@H]2C[C@H](O)[C@@H](CCC(=O)NCc3cccs3)O2)c(=O)[nH]c1=O | -7% | 12%
COC(=O)c1cc2oc(C)cc2n1CC(=O)Nc1cc(Cl)ccc1OC | -13% | -21%
COc1cccc(C(C(=O)NC2CCCC2)N2CCN(c3ncccc3C#N)CC2)c1OC (stereo not given) | -2% | 4%
CCN(CC)c1ccc(NC(=O)COc2ccc(N(C)S(=O)(=O)c3cccs3)cc2)cc1 | -13% | -3%

Quoted from above (2 entries):
SMILES | Vaccinia Venus | VACV mCherry inh
COc1cccc(C(C(=O)NC2CCCC2)N2CCN(c3ncccc3C#N)CC2)c1OC (stereo not given) | -2% | 4%
CCN(CC)c1ccc(NC(=O)COc2ccc(N(C)S(=O)(=O)c3cccs3)cc2)cc1 | -13% | -3%

Among those listed so far, 5 contain fluorine:
SMILES | Vaccinia Venus | VACV mCherry inh
CN(CC(=O)Nc1cccc(F)c1)C(=O)c1ccc2c(c1)OCCO2 | -4% | -14%
O=C(Nc1ccc2ccccc2c1)C(c1ccccc1F)n1c(=O)c(-c2cc3ccccc3[nH]2)nc2ccccc21 (stereo not given) | -1% | ?
CC(C)(C)OC(=O)N1CCC(c2c(C(=O)N3CCN(c4ccccn4)CC3)cnn2-c2ccc(F)cc2F)CC1 | -12% | -11%
O=C(CSc1nnc(NC(=O)C2CC(=O)N(c3ccc(F)cc3)C2)s1)NC1CCCC1 (stereo not given) | -4% | -8%
O=C(COC(=O)c1cccc(OC(F)F)c1)Nc1cc(S(=O)(=O)N2CCCC2)ccc1Cl | -10% | i

(cont.)
SMILES | Vaccinia Venus | VACV mCherry inh
CC(=O)c1cc(-c2ccccc2)n(CC(=O)N2CCN(C3CCCC3)CC2)c1C | -12% | -22%
CC(C)=CCC(C)(C)CNC(=O)NC1CCCCC1 | ? | nt
N#Cc1ccccc1Sc1ccccc1C(=O)OCC(=O)N1CCN(C(=O)c2ccco2)CC1 | -14% | nt
CCC(Oc1ccccc1F)C(=O)N1CCC(c2nc3ccccc3s2)CC1 (stereo not given) | -14% | -11%
Cc1cccc(C)c1-n1nnnc1C(C1CC1)N1CCC(n2c(=O)[nH]c3ccccc32)CC1 (stereo not given) | -18% | 1%
O=C(NCc1ccccc1)c1c(O)c2ccccc2[nH]c1=O | 0% | -10%
Cc1ccc(CNC(=O)Cn2cc(S(=O)(=O)Cc3ccccc3Cl)c3ccccc32)cc1 | -18% | -18%
NC(=O)C1CCN(C(=O)c2ccc3c(=O)n(Cc4cccc(Br)c4)c(=S)[nH]c3c2)CC1 | 3% | -10%
Cc1cc(N2CCC(C(=O)NCCC(C)C)CC2)n2nc(C)c(-c3ccc(Cl)cc3)c2n1 | -7% | -2%
CC(C)CNS(=O)(=O)c1ccc(CCC(=O)Nc2ccc3c(c2)OCO3)cc1 | -6% | -11%
COc1ccc(C)cc1S(=O)(=O)N(C)CC(=O)N1CCCCCC1 | 3% | -10%
Cc1ccc(Cn2ccc(NC(=O)c3cc(-c4ccc(Br)cc4)on3)n2)cc1 | -9% | -9%
CN1CSC2=C(C#N)C(c3cccc(OCc4ccccc4)c3)CC(=O)N2C1 (stereo not given) | 3% | i
CC(C)(C)c1ccc(OCCNC(=S)Nc2ccccc2)cc1 | ? | -12%
Cc1ccc(NC(=O)C2CCCN2S(=O)(=O)c2ccc3nc(-c4ccccc4)[nH]c3c2)cc1F (stereo not given) | -19% | -21%
CCOC(=O)CN1C(=O)S/C(=C/c2ccc(OC)c([N+](=O)[O-])c2)C1=O | -10% | -8%
CCN1CCN(S(=O)(=O)c2ccc(Cl)c(C(=O)NCCOc3ccc(C)cc3)c2)CC1 | -15% | 0%
COCCCNC(=S)NC(=O)c1ccc([N+](=O)[O-])cc1 | -2% | i
O=C(/C=C/c1ccc(F)cc1)Nc1cccc(S(=O)(=O)Nc2cccc(C(F)(F)F)c2)c1 | ? | -12%
CCOC(=O)c1[nH]cnc1C(=O)Nc1ccc(F)cc1 | -7%&-3% | -1%&1%
O=C(CCSc1ccc(Br)cc1)Nc1cccnc1 | -27% | -3%
CCOc1ccc(NC(=O)CN(C)C(=O)c2cc(-c3ccco3)nc3ccccc23)cc1OCC | -2% | -2%
COc1ccc(-c2c3c(=O)n(C)c(=O)n(C)c3c3n2-c2ccccc2NC3c2ccco2)cc1 (stereo not given) | -4% | -21%
CCOc1ccc(N(CC)C(=O)Cn2cnc3sc(C)c(S(=O)(=O)N4CCN(c5ncccn5)CC4)c3c2=O)cc1 | -30% | ?
O=C(NCc1ccncc1)[C@@H]1CCCN1C(=O)[C@@H]1CCCN1 | -3% | -4%
Cc1nc(Cl)c(C(=O)NCCC(C)C)c(C)c1[N+](=O)[O-] | -9% | i
CCOC(=O)c1ccc(CC(=O)c2ccc(O)c(O)c2O)o1 | -2% | -9%
O=C(COC(=O)c1nc(Cl)ccc1Cl)NC1CCS(=O)(=O)C1 (stereo not given) | -11% | -1%
O=C1C2CCCCC2C(=O)N1c1ccc(S(=O)(=O)Nc2ncccn2)cc1 (stereo not given) | 4% | -7%
C/C(=N/Nc1nc(-c2ccccc2)cc(-c2ccc(F)cc2)n1)c1cccc(N)c1 | ? | 22µM*
Cc1ccc(CNC(=O)COC(=O)c2ccc(S(=O)(=O)N3CCCC3)cc2)cc1 | -6% | -5%
O=C(C#Cc1ccccc1)c1cccc([N+](=O)[O-])c1 | -16% | i
C/C(N)=C(/C#N)C(=O)CSc1ccccc1F | -8% | -11%
CC(C)(C)n1ncc2c(=O)n(CC(=O)Nc3ccccc3)cnc21 | -5% | nt
CC(=O)c1ccc(NC(=O)c2cc3c([nH]c2=O)CC(c2ccccc2)CC3=O)cc1 (stereo not given) | -2% | -4%
Cc1ncc2c(c1CNS(=O)(=O)N(C)C)CCN(C(=O)/C=C/c1cccc(F)c1)C2 | 6% | -4%
Cc1ccc(Nc2c(-c3ccccn3)nc3cc(C)ccn23)cc1 | ? | ?
CCN1CCN(CC(=O)Nc2cc(F)ccc2C)CC1 | -8% | 0%
CCn1cc(S(=O)(=O)c2ccc(Cl)cc2)c(=O)c2cc(F)c(N3CCOCC3)cc21 | -10% | -4%
CC(=O)NCC(O)c1ccc([N+](=O)[O-])cc1 (stereo not given) | -6% | i
CCCCN(CC)CCNC(=O)CCNC(=O)Cn1ccc2ccccc2c1=O | 10% | i
CCc1csc(CNC(=O)C2CCC(=O)N(Cc3cccc(F)c3)C2)n1 (stereo not given) | -9% | -15%
CCCCNC(=O)NS(=O)(=O)c1ccc(C(=O)OC(C)C)o1 | -6% | i
O=C(COc1ccc2ccccc2c1)NCCNC(=O)COc1ccc2ccccc2c1 | ? | nt
Cc1c(NS(=O)(=O)c2cc([N+](=O)[O-])ccc2Cl)c(=O)n(-c2ccccc2)n1C | -9% | -24%
CCCCOc1cccc(C(=O)Nc2cccc3ccc(C)nc23)c1 | -1% | -10%
CCOC(=O)c1ccc(NC(=O)C2CCCN(c3ccc(Sc4ccc(C)cc4)nn3)C2)cc1 (stereo not given) | -19% | -20%
O=C(CC1C(=O)N(c2ccccc2)C(=O)N1Cc1ccc(F)cc1)Nc1cccc(F)c1 (stereo not given) | -5% | -1%
CCOC(=O)/C(C#N)=C/c1cc(C)n(-c2ccccc2)c1C | -5% | -15%
O=C(CNC(=O)c1ccc(Cl)cc1Cl)OCc1ccccc1 | -2% | -9%
COc1ccc(OCC(=O)Nc2ccccc2C(=O)Nc2ccc(C(=O)O)cc2)cc1 | -5% | i
CC(=O)c1c(O)c(C)c(O)c(Cc2c(O)c3c(c(C(=O)/C=C/c4ccccc4)c2O)OC(C)(C)C=C3)c1O | -16%&-12%&-13% | -13%
CCCOc1ccc(/C(O)=C2/C(=O)C(=O)N(CCN(C)C)C2c2ccc(OC)c(OC)c2)cc1 (stereo not given) | 4% | -10%
O=C(COC(=O)COc1ccc(Br)cc1)NNC(=O)c1ccccc1 | -10% | i
Cc1ccc(S(=O)(=O)N2CCCCC2)cc1NC(=O)Nc1ccc(Cl)cc1Cl | -28% | -6%
C[C@H](CO)N1C[C@H](C)[C@@H](CN(C)S(=O)(=O)c2cn(C)cn2)Oc2ccc(NC(=O)Nc3ccccc3)cc2C1=O | -12% | -9%
